# Assay outcomes from PubChem.
# AID923 – qHTS Assay for Allosteric/Competitive Inhibitors of Caspase-1: Spectroscopic Profiling in AFC Spectral Region; Potency, µM (series often up to 57.5 µM), without a hit: at the highest dose fluorescence increase, most hits filed as activators; AID 923, 2007; actives 1.1% (n = 75,000); compound fluorescence, AFC spectral region (405/520 nm); almost no hit is shown here; active means well fitted activation curve with a large enough effect;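 further: 0% is about no effect; scaled to a free AFC standard on each plate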
#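 Titrations up to 57 uM read every 20 sec for 3 min (405/520 nm) with 50 nM caspase 1 and 5 uM Ac-WEHD-AFC, pH 7.5 HEPES buffer. Fluorescence-vs-time intercept gave baseline, scaled against on-plate AFC standard.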
# * hit, by the source's call; & = joins results of further samples; [ ] = another dose, or the depositor's remark. Potency means the concentration at half of the fitted maximal effect. These rows are one share of the data; count on the stated rates, not on these rows.
AID923 | SMILES
-1.6% | Cn1c(N)c(C(=O)COC(=O)c2ccnc3ccccc23)c(=O)n(C)c1=O
9.8% | Nc1nc2c(c(=O)[nH]1)N=C(CNc1ccc(C(=O)NC(CCC(=O)O)C(=O)O)cc1)CN2 (stereo not drawn)
-3.0% | Cc1ccc2cc(CCNC(=O)C(C)(C)C)c(=O)[nH]c2c1
-0.2% | Cc1c(O)c(O)cc2c1oc1c3ccccc3oc(=O)c21
-4.0% | Cc1cc(OC(=O)c2c(C)cc(O)cc2O)cc(O)c1C(=O)O
-1.5% | CC1(C)CC[C@]2(C(=O)O)CC[C@@]3(C)C(=CCC4[C@@]5(C)CCC(O)[C@@](C)(CO)C5CC[C@@]43C)C2C1 (stereo partly drawn)
1.4% | C#C[C@]1(O)CCC2C3CCC4=CC(=O)CCC4C3CC[C@@]21C (stereo partly drawn)
1.8% | O=C(NCC(c1cccnc1)N1CCN(c2ccccc2F)CC1)c1ccccc1 (stereo not drawn)
-1.0% | Cc1cccc(N2C(=O)CC(N3CCN(c4cccc(C(F)(F)F)c4)CC3)C2=O)c1 (stereo not drawn)
1.9% | CC1(C)C(=O)C=C[C@]2(C)C1CC(=O)[C@]1(C)C2CC[C@@]2(C)C(c3ccoc3)OC(=O)C3O[C@@]321 (stereo partly drawn)
5.7% | CCC1=C2CC[C@H]3C(=O)N(CC(=O)OC)C(=O)[C@H]3[C@H]2[C@@]2(C)C(=NCCc3c[nH]c4ccccc34)OC(=O)N2C1=O
0.5% | COc1cc(=O)n(C)c2c(OCC(O)C(C)(C)O)cccc12 (stereo not drawn)
1.9% | CCc1nn(CCCC(=O)N2CCc3ccccc3C2)c(=O)c2cc3occc3n12
2.1% | Cc1cc(NS(=O)(=O)c2ccccc2)c(C)c(Cl)c1O
2.1% | O=C(CSc1nnc(COc2ccccc2)n1-c1ccccc1)c1cccs1
1.0% | Cc1c(C)c2c(c(C)c1O)CCC(C)(CCCC(C)CCCC(C)CCCC(C)C)O2 (stereo not drawn)
-0.4% | COc1ccc(/C=C/C(=O)c2cc(O)ccc2O)cc1
0.9% | CCn1c(C)nc2cc(S(=O)(=O)N3CCCC3)ccc21
-0.4% | COc1cc(C/C=C/c2ccccc2)c(OC)cc1O
2.2% | COc1cccc(-c2cc(=O)c3ccc(OC)cc3o2)c1
-3.1% | CCOc1cc(CNc2ncnc3nc[nH]c23)ccc1OC
0.6% | COC(=O)C(C)c1ccc(C(=O)c2cccs2)cc1 (stereo not drawn)
0.1%&-0.9% | C=C1C2CC[C@@]3(C)C(c4ccoc4)OC(=O)C[C@@]13OC1CC(O)C(C)(C)C(CC(=O)OC)[C@@]12C (stereo partly drawn)
-0.6% | COc1ccc(-c2coc3cc(OC)cc(OC)c3c2=O)cc1
-0.8% | CCC1=C2CC[C@H]3C(=O)N(C)C(=O)[C@H]3[C@H]2[C@@]2(C)C(=O)N(CC3CC3)C(=O)N2C1=O
-4.9% | CC1=C(/C=C/C(C)=C/C=C/C(C)=C/C=C/C=C(C)/C=C/C=C(C)/C=C/C2=C(C)CCCC2(C)C)C(C)(C)CCC1
-0.4% | CCc1ccc(N(CC(=O)NC2CCCC2)S(=O)(=O)c2c(C)noc2C)cc1
11% | COc1ccc(OC)c2[nH]c(=O)c(CCNC(=O)c3cc4ccccc4o3)cc12
-1.8% | Oc1ccc2c(c1)OC(c1ccc(O)c(O)c1)C(O)C2 (stereo not drawn)
-0.6% | C#C[C@@]1(O)CCC2C3CCc4cc(O)ccc4C3CC[C@@]21C (stereo partly drawn)
2.4% | CCC1OC(=O)CC(O)C(C)[C@@H](O[C@@H]2OC(C)[C@H](O[C@@H]3C[C@@](C)(O)C(O)C(C)O3)C(N(C)C)C2O)[C@H](CC=O)CC(C)C(=O)/C=C/C(C)=C/[C@@H]1COC1OC(C)C(O)C(OC)[C@@H]1OC (stereo partly drawn)
1.6% | O=C(O)C1OC(O)C(O)C(O)C1O (stereo not drawn)
-2.6% | COC(=O)[C@@H]1C[C@@]2(O)[C@@H](O)[C@@H](O)[C@@H](O)C[C@H]2N1CC(c1ccccc1)c1ccccc1
-1.7% | COc1cc(C(=O)OC2CC[C@]3(C)C4CCC5[C@]6(O)CC(O)[C@]7(O)C(CN8CC(C)CCC8[C@]7(C)O)[C@]6(O)C[C@@]53O[C@]24O)cc(OC)c1OC (stereo partly drawn)
4.1% | CN(CP(=O)(O)CCc1ccccc1)S(C)(=O)=O
-0.6% | CC1O[C@@H](O[C@@H]2C(O)C[C@H](O[C@@H]3C(O)C[C@@H](OC4CC[C@@]5(C)C6CC[C@]7(C)C(C8=CC(=O)OC8)CC[C@@]7(O)C6CC[C@@H]5C4)OC3C)OC2C)CC(O)[C@H]1O (stereo partly drawn)
1.9% | NC(=O)NC1NC(=O)NC1=O (stereo not drawn)
-2.0% | COc1ccc(/C=C/C(=O)c2ccc(O)cc2O)cc1
0.8% | CC(C)=CCC/C(C)=C\COc1c2ccoc2cc2oc(=O)ccc12
6.2% | CCNC(=O)c1c(N)sc2c1CCCCC2
-4.4% | COc1ccc2c(c1)OC1(O)COc3cc(OC)c(OC)cc3C1=C2 (stereo not drawn)
0.1% | O=c1c(O)c(-c2ccccc2)oc2ccccc12
14% | O=c1c2cc(O)c(O)cc2oc2cc(O)c(C3OC(CO)C(O)C(O)C3O)c(O)c12 (stereo not drawn)
-0.4% | CC1(C)CC[C@]2(C)CC[C@@]3(C)C(=CCC4[C@@]5(C)CCC(O)C(C)(C)C5CC[C@@]43C)C2C1 (stereo partly drawn)
-1.6% | Cc1cc(C)c2c(c1)OC(O)(C(F)F)CC2=O (stereo not drawn)
-2.2%[11.5 µM] | CO/N=C\[C@@H](NS(=O)(=O)c1ccc(C)cc1)[C@H](C)/C=C\CC(=O)OC
0.9% | CCOC(=O)C1=C[C@@]2(CC)CCCN3CCc4c(n1c1ccccc41)C32 (stereo partly drawn)
4.4% | CN1C[C@@H]2C(c3ccc(Cl)nc3)C3(c4cccnc4)CC2(C3)[C@H]1c1ccccc1 (stereo partly drawn)
-0.9% | CCC1=C(OC(=O)N(CC)CC)N2C(=O)OC(=NCC(=O)OC)[C@]2(C)[C@H]2C1=CC[C@H]1C(=O)NC(=O)[C@H]12
-1.3% | OCC(O)C(O)C(O)C(O)C(O)CO (stereo not drawn)
-1.7% | c1ccc(-c2csc(-c3nc4ccccc4[nH]3)n2)cc1
1.1% | CC1(C)CC(=O)c2c(oc3cc4c(cc23)OCO4)C1
4.3% | COc1ccc2c(c1)OC/C(=C/c1ccc(OC)c(OC)c1)C2=O
-0.3% | Cc1cccc(C)c1OCC(C)N (stereo not drawn)
-2.6% | O=c1[nH]cnc2nc[nH]c12
0.8% | CC1(C)C(OC(=O)CCC(=O)O)CC[C@]2(C)C1CC[C@@]1(C)C2C(=O)C=C2[C@@H]3C[C@@](C)(C(=O)O)CC[C@]3(C)CCC21C (stereo partly drawn)
1.8% | COc1cc(/C=C/C(=O)N2CCCCC2=O)cc(OC)c1OC
0.4% | N#Cc1ccc(C23CC4(C2)[C@H](CN(Cc2ccc(C(F)(F)F)cc2)[C@@H]4c2ccccc2)C3c2ccccc2)cc1 (stereo partly drawn)
-0.3% | O=C(CC(=O)c1ccccc1)c1ccccc1
18% | COC(=O)[C@H]1C(OC)[C@@H](OC(=O)c2cc(OC)c(OC)c(OC)c2)C[C@@H]2CN3CCc4c([nH]c5cc(OC)ccc45)[C@H]3C[C@H]21 (stereo partly drawn)

# The list goes on:
AID923 | SMILES
-1.5% | C[C@]12C=CC(=O)C=C1CCC1C2C(=O)C[C@]2(C)C1CC[C@]2(O)C(=O)CO (stereo partly drawn)
-1.2% | CC1CC[C@]2(CO)CC[C@]3(C)C(=CCC4[C@@]5(C)CCC(O)C(C)(C)C5CC[C@@]43C)C2C1C (stereo partly drawn)
0.1% | Nc1nc2[nH]c(=O)c(=O)[nH]c2c(=O)[nH]1
-0.7% | CCC1=C2CC[C@H]3C(=O)NC(=O)[C@H]3[C@H]2[C@@]2(C)C(=NCC(=O)OC)OC(=O)N2C1=O
3.6% | O=C1C2CCCN2C(c2ccc(Br)cc2)N1c1ccc(F)cc1 (stereo not drawn)
0.6% | O=Nc1c(-c2c(O)[nH]c3cc(Br)ccc23)[nH]c2ccccc12
-1.7% | CCCCCC(=O)Cc1cc(O)cc(O)c1C(=O)Oc1cc(CC(=O)CCCCC)c(C(=O)O)c(OC)c1
-3.3% | COC(=O)[C@@H]1C[C@H]2CC[C@H](O)C[C@H]2N1Cc1ccc(C(C)(C)C)cc1
0.1% | CCC1=C2CC[C@H]3C(=O)NC(=O)[C@H]3[C@H]2[C@@]2(Cc3ccccc3)C(=NCC3CC3)OC(=O)N2C1=O
-2.5% | CCCNC(=O)N1N=C(c2ccc(N)cc2)c2cc3c(cc2[C@H]1C)OCO3
-1.1% | O=C(NC1CCCCC1)NC1CCCCC1
2.1% | O=C(c1cn(-c2ccccc2)nc1-c1ccc(F)cc1)N1CCOCC1
-2.2% | C#C[C@]1(O)CC[C@H]2[C@H]3CCC4=Cc5oncc5C[C@]4(C)[C@@H]3CC[C@]21C
-0.5% | COC(=O)[C@@H]1C[C@H]2CC[C@H](O)C[C@H]2N1Cc1ccc(N2CCN(C)CC2)cc1
-1.3% | CC1CC(=O)N(CC(=O)Nc2ccc3c(c2)OCO3)c2ccccc2S1 (stereo not drawn)
-1.9% | FC(F)(F)c1ccc(C2[C@H]3CN(Cc4cccnc4)[C@H](c4ccccc4)C34CC2(c2cccnc2)C4)cc1 (stereo partly drawn)
-1.7% | CCCN1CC(CSC)C[C@H]2c3cccc4[nH]cc(c34)C[C@H]21 (stereo partly drawn)
-1.1% | CCOC(=O)OC(C)OC(=O)C1N2C(=O)C(NC(=O)C(N)c3ccccc3)C2SC1(C)C (stereo not drawn)
1.9% | COC(=O)[C@H]1C[C@@H]2CC[C@@H](O)C[C@@H]2N1Cc1c(F)cccc1Cl
0.2% | CCCC(=O)c1ccc(N2CCN(C(=O)c3ccccc3)CC2)c(F)c1
-1.6% | CCCCC1=NC2(CCCC2)C(=O)N1Cc1ccc(-c2ccccc2-c2nn[nH]n2)cc1
0.2% | O=C(CSc1ccccn1)Nc1ccccc1F
-0.1% | COC(=O)CC1C(C)(C)C(OC(C)=O)[C@@]2(O)C=C3C4CC(=O)OC(c5ccoc5)[C@]4(C)CCC3[C@@]1(C)C2=O (stereo partly drawn)
3.1% | COC(=O)[C@@H]1C[C@@]2(O)[C@H](O)[C@H](O)[C@H](O)C[C@H]2N1Cc1ccc(N2CCN(C)CC2)cc1
3.9% | CCC(Sc1nnnn1-c1ccccc1)C(=O)Nc1nc2ccccc2s1 (stereo not drawn)
-2.7% | FC(F)(F)c1ccc(CN2C[C@@H]3C(c4ccc(Cl)nc4)C4(c5ccccc5)CC3(C4)[C@H]2c2ccccc2)cc1 (stereo partly drawn)
-2.0% | CC(C)c1ccc2c(c1)CC[C@@H]1[C@@](C)(CN)CCC[C@]21C
1.1% | CC(C)=CCc1c(O)cc2occ(-c3ccc4c(c3)OCO4)c(=O)c2c1O
-1.5% | COc1cc(O)c(C(=O)O)c(O)c1
-0.5% | CC(=O)OC/C=C(\C)CC/C=C(\C)CC/C=C(\C)CC/C=C(\C)CC/C=C(\C)CC/C=C(\C)CC/C=C(\C)CC/C=C(\C)CCC=C(C)C
0.3% | C=CCc1ccc(OC(=O)c2ccccc2)c(OC)c1
3.2% | COc1ccccc1Cc1nc(-c2ccc(Br)o2)no1
-1.7% | C[C@@H](NC(=O)/C(C#N)=C/c1ccc(O)c(O)c1)c1ccccc1
-2.1% | COC(=O)[C@]1(C)CCC[C@]2(C)c3ccc(C(C)C)cc3C(=O)CC12 (stereo partly drawn)
-0.8% | CC(C)C(N)C(=O)NC(Cc1c[nH]c2ccccc12)C(=O)O (stereo not drawn)
-0.9% | CC(C)Oc1ccc2c(=O)c3cc(C(=O)O)ccc3oc2c1
-1.7%[11.5 µM] | CC(C)CO/N=C1/C[C@@H](O)[C@@H](O)[C@@H]2[C@@H]3C(=O)N([C@@H](C)c4ccccc4)C(=O)[C@H]3CC[C@H]12
0.8% | CC(=O)OC1CCC2(C)C3=C(CCC2C1(C)C)[C@]1(C)CCC(C(C)CCC=C(C)C)[C@]1(C)CC3 (stereo partly drawn)
-2.3% | O=c1c(O)c(-c2ccc(O)cc2)oc2ccccc12
-3.3% | CCOC(=O)C(Cc1ccc(O)cc1)NC(C)=O (stereo not drawn)

# Three compounds already listed, ordered by length of the SMILES, rising.
AID923 | SMILES
-1.5% | COc1cc(O)c(C(=O)O)c(O)c1
-2.0% | CC(C)c1ccc2c(c1)CC[C@@H]1[C@@](C)(CN)CCC[C@]21C
1.1% | CC(C)=CCc1c(O)cc2occ(-c3ccc4c(c3)OCO4)c(=O)c2c1O

# Single entries from the list:
# Entry of C=CCc1ccc(OC(=O)c2ccccc2)c(OC)c1 in AID923: 0.3%
# Entry of C[C@@H](NC(=O)/C(C#N)=C/c1ccc(O)c(O)c1)c1ccccc1 in AID923: -1.7%

# Later entries
AID923 | SMILES
-0.4% | CN1C2CC(OC(=O)C(CO)c3ccccc3)C[C@@H]1[C@H]1OC21 (stereo partly drawn)
-0.7% | C=C[C@](C)(O)CCC1C(=C)CC(OC(C)=O)C2C(C)(C)CCCC12C (stereo partly drawn)
-2.4% | NC1CONC1=O (stereo not drawn)
1.5% | CCN(CC)CCOC(=O)C(c1ccccc1)C1CCCCC1 (stereo not drawn)
-3.9% | O=c1c(O)cccc2cc(O)c(O)c(O)c12

# Two of the compounds above, bar-delimited:
Molecule | AID923
C=C[C@](C)(O)CCC1C(=C)CC(OC(C)=O)C2C(C)(C)CCCC12C (stereo partly drawn) | -0.7%
CCN(CC)CCOC(=O)C(c1ccccc1)C1CCCCC1 (stereo not drawn) | 1.5%

# Reprinted at random: three entries already listed.
AID923 | SMILES
0.2% | CCCC(=O)c1ccc(N2CCN(C(=O)c3ccccc3)CC2)c(F)c1
0.1% | O=c1c(O)c(-c2ccccc2)oc2ccccc12
-2.4% | NC1CONC1=O (stereo not drawn)
